# A1 inhib: A1 inhibition; MEF A1-2A-BIM cells, caspase-Glo luminescence, 3 h; percent of clofoctol signal, DMSO as zero; caspase activation, % (concentration not given with the values); 0.51% of 21,000 active; AID 2241;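 active = most replicate scores above 10, or exactly half above 10 with mean activity above 10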;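 note: effector caspase 3 and 7 activity cleaving a DEVD luciferin substrate; 50 nL library stock added to about 30 µL; numbers are from one replicate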
# BJeLR viability: lowers viability of BJeLR cells; BJeLR fibroblasts viability, CellTiterGlo ATP luminescence, 48 h; HRASV12, hTERT and SV40 LT/ST transformed; viability loss activity score, % (no concentration beside the values); 0.64% of 30,000 active; AID 2275; in the data active = viability loss activity score above about 50%; about a fifth of its hits are not listed in these tables;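 note: higher score means fewer live cells and less ATP luminescence; stock transfer was 50 or 100 nL into about 30 µL; 0% = vehicle wells and 100% = a reference killing control; one replicate is shown; the record names a cut of 85%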
# An asterisk follows results filed as active; · = no result given. An excerpt. The share of hits here may be higher or lower than overall.
SMILES,A1 inhib,BJeLR viability
Cc1cc(C)n(-c2nc3ccccc3nc2N2CCN(S(=O)(=O)c3cccs3)CC2)n1,·,0.5
COc1ccc(S(=O)(=O)N(C)C[C@H]2Oc3ccc(NC(=O)CCN4CCOCC4)cc3C(=O)N([C@H](C)CO)C[C@H]2C)cc1,-0.1,12
C[C@@H]1CN([C@@H](C)CO)C(=O)c2cccc(NC(=O)Nc3ccc(C(F)(F)F)cc3)c2O[C@@H]1CN(C)C,·,0.7
C[C@@H]1CN([C@H](C)CO)C(=O)c2cc(NC(=O)c3ccncc3)ccc2O[C@H]1CN(C)Cc1ccc(Oc2ccccc2)cc1,-0.6,3.7
Cc1cccc(-n2ncc3c(NCCc4ccccc4)ncnc32)c1,-0.3,5.7
C[C@H](CO)N1C[C@H](C)[C@@H](CN(C)S(=O)(=O)c2ccc(Cl)cc2)Oc2ccc(NC(=O)NC3CCCCC3)cc2C1=O,0.1,-1.7
O=C(O)c1ccccc1C(=O)N1CCN(c2ncccn2)CC1,-0.8,17
COc1cc(O)c2c(=O)c(OC)c(-c3cc(O)c(OC)c(OC)c3)oc2c1,0.2,-6.0
C[C@H](CO)N1C[C@H](C)[C@H](CN(C)S(=O)(=O)c2cccs2)Oc2ccc(NS(C)(=O)=O)cc2C1=O,-0.2,-1.0
Cc1cccc(C)c1NC(=O)CCCSc1nnnn1-c1ccccc1,1.9,-1.2
CN(C)c1ccc(/C=C(\C#N)S(=O)(=O)c2ccccc2)cc1C#N,1.0,3.4
O=C(c1ccccc1)c1nn(-c2ccc(Cl)cc2)ccc1=O,-0.1,2.3
Cc1cc(=O)oc(C)c1C(=O)Nc1ccccc1C(=O)N1CCCCC1,0.9,-4.9
COc1cc(/C=C\C(=O)NCc2ccc3c(c2)cc(C)n3C)cc(OC)c1OC,·,0.9
COc1ccc(S(=O)(=O)N(C)C[C@H]2Oc3c(NC(=O)c4cc(C)nn4C)cccc3C(=O)N([C@@H](C)CO)C[C@H]2C)cc1,·,0.3
C[C@H]1CN([C@@H](C)CO)C(=O)c2cc(NC(=O)CCCN(C)C)ccc2O[C@@H]1CN(C)S(=O)(=O)c1cn(C)cn1,0.8,2.4
Cc1ccc(OC(=O)OCSc2nn[nH]n2)cc1,-2.5,6.7
C[C@H]1CN([C@@H](C)CO)C(=O)c2cccc(NC(=O)C3CCCCC3)c2O[C@H]1CN(C)C(=O)Nc1cccc2ccccc12,·,-8.1
Cc1nc(N)[nH]c(=O)c1CCC(C)C,-0.8,-1.2
CN1CCN(C(=O)CCN2C(=O)/C(=C/c3ccc(Cl)cc3)SC2=S)CC1,·,3.1
Cc1noc(C)c1S(=O)(=O)Nc1cccc2c1O[C@@H](CN(C)S(=O)(=O)c1cccs1)[C@@H](C)CN([C@@H](C)CO)C2=O,·,-0.4
COc1ccccc1C(=O)Nc1ccc2nc(SCC(=O)Nc3ccc(C)cc3C)sc2c1,0.0,1.2
COc1ccc(NC(=O)Nc2cccc3c2O[C@H](CN(C)C(=O)Nc2ccc(F)cc2)[C@@H](C)CN([C@@H](C)CO)C3=O)cc1,·,-2.4
COc1ccc(NC(=O)Nc2cccc3c2O[C@@H](CN(C)C(=O)Nc2ccccc2)[C@H](C)CN([C@@H](C)CO)C3=O)cc1,·,6.9
Cc1noc(C)c1NC(=O)N(C)C[C@@H]1Oc2c(NC(=O)NC3CCCCC3)cccc2C(=O)N([C@@H](C)CO)C[C@H]1C,·,5.3
C[C@@H]1CN([C@H](C)CO)C(=O)c2cccc(NC(=O)NC3CCCCC3)c2O[C@H]1CN(C)C(=O)Nc1cccc2ccccc12,·,-1.8
NNC(=S)NC1CCCCCCCCCCC1,0.2,-2.2
CCC(C(=O)NCc1cc(Br)ccc1OC)n1nc(C)n2c(cc3occc32)c1=O (centres undefined),-0.1,-0.5
Nc1ccc(C(=O)N2CCOCC2)cc1,0.7,0.7
COc1ccc(S(=O)(=O)N(C(=O)C2CCCCC2)c2ccc3oc(=O)sc3c2)cc1OC,·,-1.9
C[C@H]1CN([C@@H](C)CO)C(=O)c2cccc(NC(=O)C3CC3)c2O[C@@H]1CN(C)C,·,16
C[C@@H]1CN([C@@H](C)CO)C(=O)c2cc(NC(=O)Nc3ccc(C(F)(F)F)cc3)ccc2O[C@H]1CN(C)Cc1ccccc1,1.3,0.5
Cc1ccc(N(C(=O)c2cc3ccccc3oc2=O)C2C=CS(=O)(=O)C2)cc1 (centres undefined),·,6.2
O=C(Nc1cc(Cl)cc(Cl)c1)N1CCC(n2cccc2)CC1,0.4,4.5
CC(C)(C)c1csc(=Nc2ccc(F)cc2F)o1,-3.4,-6.5
Cc1ccc(S(=O)(=O)Nc2cccc3c2O[C@H](CN(C)C)[C@@H](C)CN([C@H](C)CO)C3=O)cc1,·,-5.6
CC(=O)N1CC(C)Sc2cc(S(=O)(=O)N3CCCCC3)ccc21 (centres undefined),0.6,4.0
CC1(C)CC(=O)c2cc(OCC(=O)NCc3ccccc3)ccc2O1,·,-9.3
CC1Sc2cc(S(=O)(=O)NCCc3ccccc3)ccc2NC1=O (centres undefined),-1.5,0.9
C[C@H](CO)N1C[C@H](C)[C@@H](CN(C)Cc2ccncc2)Oc2c(NC(=O)C3CCCCC3)cccc2C1=O,·,-3.1
Cc1cc(C)c2oc(-c3ccc(NC(=O)COc4ccc(Br)cc4)cc3O)nc2c1,-0.4,5.4
C[C@@H]1CN([C@H](C)CO)C(=O)c2cccc(NC(=O)Nc3ccc(F)cc3)c2O[C@@H]1CN(C)C(=O)Nc1cccc2ccccc12,·,-8.4
CNC(=O)C(C)n1nc(C)c2sc3ccccc3c2c1=O (centres undefined),0.3,0.8
O=c1c(-c2ccccc2)[n+]([O-])c2ccccc2n1OCc1ccccc1,2.1,1.9
COC1CC(OC(O)C(O)C(O)C(O)C(O)CO)c2c(cc3cc(C)oc(=O)c3c2O)OC1=O (centres undefined),0.0,-0.2
CCOC(=S)SCc1c(C)c(C)c(C)c(C)c1C,-0.6,1.4
CC(C)NC(=O)N(C)C[C@H]1Oc2c(NC(=O)Nc3ccc(F)cc3)cccc2C(=O)N([C@@H](C)CO)C[C@H]1C,·,-8.6
C[C@@H]1CN([C@@H](C)CO)C(=O)c2cccc(NS(=O)(=O)c3cccs3)c2O[C@H]1CN(C)C(=O)Nc1ccc(F)cc1,·,-2.5
CC(C)(C)c1ccc(-c2nnc(SCc3cccc(C(N)=O)c3)n2-c2ccc3c(c2)OCO3)cc1,·,-3.8
Cc1ccc(-c2nnc(Nc3ccccc3)c3ccccc23)cc1S(=O)(=O)N1CCCCC1,-0.3,-8.1

# (more compounds)
SMILES,A1 inhib,BJeLR viability
CC1=CC2(CCC(C)CC2C(=O)NCc2ccc(Cl)cc2)OC1=O (centres undefined),0.4,5.0
C[C@@H]1CN([C@H](C)CO)C(=O)c2cccc(NC(=O)Nc3ccc4c(c3)OCO4)c2O[C@H]1CN(C)C(=O)Nc1ccc(C(F)(F)F)cc1,·,-1.5
O=C(Cc1ccc(Cl)cc1)Nc1ccccn1,-1.4,-1.6
S=C(NCc1ccccc1)c1ccccn1,·,-6.9
C[C@@H]1CN([C@@H](C)CO)C(=O)c2cc(NS(=O)(=O)c3ccccc3)ccc2O[C@@H]1CN(C)S(=O)(=O)c1cccs1,-0.7,4.6
COc1ccccc1-n1c(C23CC4CC(CC(C4)C2)C3)n[nH]c1=S,-1.2,0.1
Cc1ccccc1OCC(=O)NC1CCCCC1NC(=O)COc1ccccc1C (centres undefined),0.8,-6.3
O=C(CSc1oc(-c2cccs2)nc1S(=O)(=O)c1ccccc1)c1ccccc1,·,-2.3
CO[C@H]1C(=O)c2c(O)c(CC=C(C)C)c(O)c(CC=C(C)C)c2O[C@@H]1c1ccc(O)cc1,-0.3,4.6
COc1cc(OC)cc(C(=O)N2CCN=C2c2ccccc2)c1,0.2,2.7
C[C@H]1CN([C@@H](C)CO)C(=O)c2cccc(NC(=O)Nc3ccc4c(c3)OCO4)c2O[C@H]1CN(C)S(=O)(=O)c1cccs1,·,-4.4
COc1ccccc1C1CC(=O)NC(C)=C1C(=O)OC1CCCC1 (centres undefined),·,-0.2
CC(/C=C/c1ccccc1)=N\n1c(C)cc(C)c(C#N)c1=O,·,5.8
CCC1CCc2[nH]c(=S)c(C#N)c(C(F)(F)F)c2C1 (centres undefined),·,-5.6
COc1ccc(NC(=O)Nc2cccc3c2O[C@@H](CN(C)C(=O)Nc2ccc(OC)cc2)[C@H](C)CN([C@@H](C)CO)C3=O)cc1,·,-0.1
CCc1ccc(NC(=S)N(CCN2CCOCC2)Cc2ccccc2F)cc1,0.6,2.1
C[C@H](CO)N1C[C@H](C)[C@@H](CN(C)C)Oc2ccc(NS(=O)(=O)c3cn(C)cn3)cc2C1=O,0.1,0.2
COc1ccc(S(=O)(=O)N(C)C[C@@H]2Oc3ccc(NS(=O)(=O)c4ccccc4)cc3C(=O)N([C@@H](C)CO)C[C@H]2C)cc1,0.8,0.3
CCOc1cc(/C=C(/C#N)C(N)=O)cc(CSc2ccccc2)c1O,-0.2,-2.3
COC(=O)C1SCCN1S(=O)(=O)c1ccc(-c2cc(C(F)(F)F)on2)s1 (centres undefined),0.4,1.7
C[C@H]1CN([C@@H](C)CO)C(=O)c2cc(NC(=O)C3CCCCC3)ccc2O[C@H]1CN(C)S(=O)(=O)c1cn(C)cn1,0.9,0.5
COc1ccc(S(=O)(=O)Nc2ccc3c(c2)C(=O)N([C@H](C)CO)C[C@H](C)[C@H](CN(C)Cc2ccncc2)O3)cc1,0.3,-1.2
CNC[C@H]1Oc2c(NC(=O)C3CC3)cccc2C(=O)N([C@H](C)CO)C[C@@H]1C,·,1.2
COc1ccc(CN(C)C[C@@H]2Oc3c(NS(=O)(=O)c4ccc(OC)cc4)cccc3C(=O)N([C@H](C)CO)C[C@@H]2C)cc1,·,-2.1
C#C[C@]1(O)CC[C@H]2[C@@H]3CCc4cc(OC)ccc4[C@H]3CC[C@@]21C,-0.8,6.4
C[C@H]1CN([C@@H](C)CO)C(=O)c2cc(NC(=O)Cn3cnnn3)ccc2O[C@H]1CN(C)S(=O)(=O)c1ccc(F)cc1,-0.6,0.5
COC(=O)CCC(=O)c1cc2cc(Br)ccc2o1,-1.7,3.0
C[C@@H]1CN([C@@H](C)CO)C(=O)c2cccc(NC(=O)Nc3ccc(C(F)(F)F)cc3)c2O[C@@H]1CN(C)C(=O)Nc1ccc2c(c1)OCO2,·,-4.3
Cc1ccc(S(=O)(=O)Nc2ccc3c(c2)C(=O)N([C@H](C)CO)C[C@H](C)[C@H](CN(C)Cc2ccc(C(=O)Nc4ccccc4N)cc2)O3)cc1,·,9.1
O=C(O)/C=C/c1ccc2c(-c3ccccc3)onc2c1,-1.4,-12

# Some of the entries so far, with each value named:
C[C@@H]1CN([C@@H](C)CO)C(=O)c2cccc(NC(=O)Nc3ccc(C(F)(F)F)cc3)c2O[C@@H]1CN(C)C(=O)Nc1ccc2c(c1)OCO2
  A1 inhib = ·; BJeLR viability = -4.3
Cc1ccc(S(=O)(=O)Nc2ccc3c(c2)C(=O)N([C@H](C)CO)C[C@H](C)[C@H](CN(C)Cc2ccc(C(=O)Nc4ccccc4N)cc2)O3)cc1
  A1 inhib = ·; BJeLR viability = 9.1

# Additional records.
SMILES,A1 inhib,BJeLR viability
C[C@H]1CN([C@@H](C)CO)C(=O)c2cccc(NC(=O)C3CCOCC3)c2O[C@@H]1CN(C)S(C)(=O)=O,·,9.7
C[C@@H]1CN([C@H](C)CO)C(=O)c2cccc(NC(=O)c3cnccn3)c2O[C@@H]1CN(C)Cc1ccc2c(c1)OCO2,·,-4.0
C[C@@H]1CN([C@H](C)CO)C(=O)c2cc(NS(=O)(=O)c3cn(C)cn3)ccc2O[C@@H]1CN(C)S(=O)(=O)c1ccccc1,-0.6,1.5
Cc1ccc(S(=O)(=O)N(C)C[C@H]2Oc3ccc(NC(=O)Nc4ccccc4)cc3C(=O)N([C@@H](C)CO)C[C@H]2C)cc1,-0.7,0.6
CCOc1ccc(S(=O)(=O)Nc2cccc(-c3cn4cccc(C)c4n3)c2)cc1,0.7,-0.1
CC1=Nc2ccccc2NC(=O)C1Sc1nc2ccccc2s1 (centres undefined),-0.2,-3.6
COC(=O)C1=CO[C@@H](O[C@@H]2O[C@H](CO)[C@@H](O)[C@H](O)[C@H]2O)/C(=C\CO)[C@@H]1CC(=O)OCCc1ccc(O)cc1,-0.1,17
C=C(C)C(=O)Nc1ccc(O)c(-c2nc3ccccc3[nH]2)c1,-0.5,2.3
O=C(Oc1ccc(C2SCCS2)cc1)c1cccc(C(F)(F)F)c1,-0.4,0.0
CC(=O)Nc1ccc(Oc2cncc(Cl)c2)nc1,-0.7,-0.8
Cc1noc(C)c1NC(=O)Nc1ccc2c(c1)C(=O)N([C@@H](C)CO)C[C@H](C)[C@@H](CN(C)S(=O)(=O)c1ccc(Cl)cc1)O2,-0.3,-1.6

# Given as labelled records: four of the compounds above
smiles: Cc1ccccc1OCC(=O)NC1CCCCC1NC(=O)COc1ccccc1C (centres undefined)
  A1 inhib = 0.8
  BJeLR viability = -6.3
smiles: O=C(CSc1oc(-c2cccs2)nc1S(=O)(=O)c1ccccc1)c1ccccc1
  A1 inhib = ·
  BJeLR viability = -2.3
smiles: CO[C@H]1C(=O)c2c(O)c(CC=C(C)C)c(O)c(CC=C(C)C)c2O[C@@H]1c1ccc(O)cc1
  A1 inhib = -0.3
  BJeLR viability = 4.6
smiles: COc1cc(OC)cc(C(=O)N2CCN=C2c2ccccc2)c1
  A1 inhib = 0.2
  BJeLR viability = 2.7
